Mtb bLac sens: beta-lactam sensitization of Mtb H37Rv. M. tuberculosis H37Rv growth with meropenem, percent inhibition; hits of this screen are not shown here. inhibition, % at 25 µM. 0.27% of 330,000 active;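 active = about 74% or more and at least 40 points above the plate without the antibiotic, then above 30% in a dose series; inconclusive = first-round hits that could not be retested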;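 note: growth measured after seven days incubation then overnight dye step; 0% = bacteria only wells and 100% = bacteria with antibiotic; twin plates without the antibiotic show which effects depend on it; some results filed as inactive read as strong as hits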
An asterisk follows results filed as active; ? = inconclusive. These rows are one share of the data; rates above refer to the full screens.

#	compound	Mtb bLac sens
1	COc1ccc(CN(C)C(=O)C2CSC3(C)CCC(=O)N23)cc1OC (stereo not drawn)	-3
2	O=C(NCCN1CCOCC1)c1cccc(S(=O)(=O)Nc2ccc(Br)cc2)c1	0
3	COCCN(CC(=O)Nc1cccc(C)c1C)C(=O)CN1C(=O)NC2(CCCCC2)C1=O	-6
4	COc1ccccc1CNC(=O)c1cc(C2CC2)nc2c1cnn2C(C)C	?
5	Cc1ccc(S(=O)(=O)N(CCC(=O)NCc2ccccc2F)c2ccccc2)cc1	9
6	O=C(COC(=O)/C=C/c1cccc(F)c1)NC1CCCC1	-2
7	CCCCn1c(N)c(N(CCOC)C(=O)CSc2ccc([N+](=O)[O-])cc2)c(=O)[nH]c1=O	-1
8	O=C(COC(=O)[C@@H]1CCCN1C(=O)c1cccs1)Nc1cccc([N+](=O)[O-])c1	-9
9	COCCN(Cc1ccccc1)C(=O)c1ccc(C(=O)c2ccccc2)cc1	11
10	Cc1ccc(NC(=S)NC(=O)c2cccs2)cc1F	-4
11	O=C(CCN1C(=O)C2CCCCC2C1=O)Nc1nc2ccc(F)cc2s1 (stereo not drawn)	-5
12	O=C(Nc1ccccc1)c1nc[nH]c1C(=O)NCCCCCCNC(=O)c1[nH]cnc1C(=O)Nc1ccccc1	3
13	COC(=O)[C@H](Cc1ccccc1)N(Cc1ccccc1)S(=O)(=O)N(Cc1ccccc1)[C@@H](Cc1ccccc1)C(=O)OC	11
14	O=C1C=C(c2cccc(Cl)c2)C[C@@H](c2ccc(Cl)cc2)C1	19
15	COc1ccc(CCNC(=O)CCc2nnc(Cc3ccc4c(c3)OCO4)o2)cc1	?
16	COCCN(C(=O)C1CCC1)c1c(N)n(CC(C)C)c(=O)[nH]c1=O	5
17	COc1ccc(/C=C/c2c(-c3ccc(OC)cc3)sc3cc(OC)c(OC)cc23)cc1	6
18	CCCNC(=O)C(Cc1ccc(OC)cc1)NC(=O)c1ccc(C#N)cc1 (stereo not drawn)	5
19	COc1cccc(/C=C/C(=O)OCC(=O)Nc2cccc(S(=O)(=O)NC3=NCCCCC3)c2)c1	4
20	O=C(N/C(=C\c1ccco1)C(=O)N1CCCCC1)c1ccc([N+](=O)[O-])cc1	-7
21	COC(=O)c1cn(C(=O)c2ccc(OC)cc2)c2ccccc12	-14
22	Cc1onc(-c2c(F)cccc2Cl)c1C(=O)Nc1ccc(S(=O)(=O)N2CCOCC2)cc1	-5
23	CCCCNc1c(-c2ccc(OC)c(Sc3ccc(OC)cc3)c2)nc2cnccn12	60
24	O=C(c1cccc(S(=O)(=O)N2CCc3ccccc32)c1)N1CCOCC1	-11
25	COc1ccc(NC(=O)Nc2cccc3c2O[C@H](CN(C)S(C)(=O)=O)[C@@H](C)CN([C@H](C)CO)C3=O)cc1	5
26	COc1cccc(NC(=O)CN(C)C(=O)CCNC(=O)c2ccccc2Cl)c1	-4
27	COC(=O)c1ccccc1S(=O)(=O)N1CCC(C(=O)OC(C)C(=O)Nc2ccccc2OC)CC1 (stereo not drawn)	-9
28	Nc1c(C(=O)CSc2nnc(Nc3ccc(F)cc3)s2)c(=O)[nH]c(=O)n1C1CC1	-8
29	Cn1c(N)c(C(=O)COC(=O)Cc2ccccc2)c(=O)n(C)c1=O	-1
30	CCN(C[C@H]1N[C@@](Cc2ccccc2)(C(=O)OC)[C@H]2C(=O)N(C)C(=O)[C@@H]12)C(=O)COC	-1
31	N#Cc1ccc(OCC(=O)NNC(=S)NC2CCCCC2)cc1	5
32	Cc1c(NC(=O)CSc2ccc3ccccc3n2)c(=O)n(-c2ccccc2)n1C	15
33	COc1ccc(C(=O)O)cc1S(=O)(=O)NC(C)C12CC3CC(CC(C3)C1)C2 (stereo not drawn)	-6
34	O=C(c1cccc(F)c1)N1CCCc2ccccc21	-2
35	CC1CN(C(=O)C(C)OC(=O)c2ccc3ncsc3c2)CC(C)O1 (stereo not drawn)	1
36	CN(C(=O)COC(=O)c1cc(S(=O)(=O)N2CCCCC2)ccc1Cl)c1ccccc1	-4
37	Cc1cc(C(=O)N2CCCC(C(=O)c3ccc(Cl)cc3C)C2)no1 (stereo not drawn)	?
38	C[C@@H]1NS(=O)(=O)[C@H]2C[C@@H]3C=C[C@]2(O3)[C@H]1OC(=O)Nc1ccc(C(F)(F)F)cc1[N+](=O)[O-]	-2
39	CC[C@H](C)C(=O)N[C@H]1CCCN1C(=O)/C=C/c1ccccc1	1
40	O=C(COC(=O)c1ccco1)NNC(=O)c1ccc(Cl)cc1	-5
41	CCCN(C(=O)CCc1ccc(OC)cc1)c1c(N)n(Cc2ccccc2)c(=O)[nH]c1=O	-5
42	CN(Cc1nc2ccccc2c(=O)[nH]1)C(=O)c1ccc(S(=O)(=O)N2CCCC2)cc1	-9
43	COc1ccc(CCNC(=O)COC(=O)C2CC2C)cc1OC (stereo not drawn)	-2
44	COc1cc2c(=O)n(CCC(=O)NCC3CCCO3)c(=O)n(CC(=O)Nc3ccc(C)c(C)c3)c2cc1OC (stereo not drawn)	-7
45	NC(=O)CCN(C(=O)c1cccc(S(=O)(=O)N2CCc3ccccc32)c1)c1ccccc1	7
46	N#Cc1cc([N+](=O)[O-])ccc1NC(=O)CSc1n[nH]c(=O)n1C1CC1	-1
47	C#CCOCCOCCOCCNc1nc(N2CCOCC2)nc(N2CCN(C(=O)CCCCCCCCCCNC(=O)[C@@H]([C@H](C)CC)n3cc(CCCCCN)nn3)CC2)n1	100
48	CC1CC(C)CN(C(C)C(=O)Nc2cc(S(=O)(=O)N3CCCCC3)ccc2Cl)C1 (stereo not drawn)	-9
49	O=C(COC(=O)COc1ccc(Cl)cc1)NC1CC1	6
50	O=C(Nc1ccc(N2CCOCC2)cc1)c1cccc(S(=O)(=O)N2CCOCC2)c1	3

Reprinted, nos. 1 to 4
#	compound	Mtb bLac sens
1	COc1ccc(CN(C)C(=O)C2CSC3(C)CCC(=O)N23)cc1OC (stereo not drawn)	-3
2	O=C(NCCN1CCOCC1)c1cccc(S(=O)(=O)Nc2ccc(Br)cc2)c1	0
3	COCCN(CC(=O)Nc1cccc(C)c1C)C(=O)CN1C(=O)NC2(CCCCC2)C1=O	-6
4	COc1ccccc1CNC(=O)c1cc(C2CC2)nc2c1cnn2C(C)C	?

Additional entries follow:
#	compound	Mtb bLac sens
51	Fc1cccc(CCN2CCN=C2Nc2ccccc2)c1	1
52	COc1ccc(C(=O)Nc2ccc3nc(N4CCOCC4)sc3c2)cc1OC	-9
53	O=C(CCCNC(=O)c1ccc(Cl)cc1)Nc1ccc(F)c(S(=O)(=O)N2CCOCC2)c1	-5
54	CCN(CC(=O)Nc1ccc(NC(C)=O)cc1)C(=O)c1oc2c(ccc3ccccc32)c1C	3
55	Brc1ccc(Oc2cc(Br)c(Br)cc2Br)c(Br)c1	-8
56	COc1cc(N)c(Cl)cc1C(=O)OCC(=O)NCc1cccs1	0
57	CC(=O)Nc1ccc(NC(=O)C(C)OC(=O)c2ccc3ccccc3n2)cc1 (stereo not drawn)	-10
58	Cc1ccc(S(=O)(=O)N2CCN(C(=O)CN3C(=O)NC(C)(c4ccc(Cl)cc4)C3=O)CC2)c(C)c1 (stereo not drawn)	-10
59	CCCOc1ccc(S(=O)(=O)N2CCN(C)CC2)c2ccccc12	-2
60	CCN(C(=O)COC(=O)/C=C/c1cccc([N+](=O)[O-])c1)c1c(N)n(Cc2ccccc2)c(=O)[nH]c1=O	-1
61	N#Cc1ccccc1S(=O)(=O)N1CCN(C(=O)[C@H](Cc2ccccc2)NC(=O)c2ccco2)CC1	-4
62	CCOc1c(Br)cc(C(=O)OCC(=O)N2CCc3ccccc3C2)cc1OC	73
63	Cc1ccc(CNC(=O)CN2C(=O)NC3(CCCC3)C2=O)cc1	34
64	COc1ccc(NC(=O)CN(C)C(=O)CSC(c2ccccc2)c2ccccc2)cc1	-3
65	Cc1csc2nc(COC(=O)CNC(=O)c3ccc(Cl)cc3)cc(=O)n12	-5
66	CCc1ccc(NC2=NCCCS2)cc1	1
67	CCN1CCN(S(=O)(=O)c2ccc3c4c(cccc24)C(=O)N3CC)CC1	4
68	CC1CCCCC1NC(=O)COC(=O)c1ccc2c(=O)n3c(nc2c1)CCC3 (stereo not drawn)	3
69	CC(=O)Nc1ccc(S(=O)(=O)NCCC(=O)OCC(=O)NCc2ccccc2)cc1	-3
70	Cc1ccc(NC(=O)c2ccc(Cl)nc2)cc1S(=O)(=O)N1CCOCC1	-4
71	COc1ccccc1N(Cc1ccccc1)S(=O)(=O)c1cccc(C(=O)NCC2CCCO2)c1 (stereo not drawn)	-3
72	CN(C)c1oc(-c2ccco2)nc1S(=O)(=O)c1ccc(Br)cc1	2
73	CN(CC(=O)Nc1ccc(N2CCOCC2)cc1)C(=O)c1ccc(CS(C)(=O)=O)cc1	-6
74	O=C(CN1CCCC1c1cccs1)Nc1cc(S(=O)(=O)N2CCCC2)ccc1Cl (stereo not drawn)	-10
75	Cc1ccc(C2=CC(=O)C[C@H](c3ccc(F)cc3)C2)cc1	24
76	O=C(COC(=O)C1CC(=O)N(Cc2ccco2)C1)Nc1ccc(F)cc1F (stereo not drawn)	-1
77	CC1=C(C(=O)OC(C)C)C(c2ccc(O)cc2)NC(=O)N1 (stereo not drawn)	-2
78	O=C(Nc1ccc(S(=O)(=O)N2CCOCC2)cc1)c1ccc([N+](=O)[O-])s1	95
79	COC(=O)C1=C(c2ccc(Cl)c(C(F)(F)F)c2)C[C@@H]2CC[C@H]1N2C(=O)NCc1ccco1	2
80	C#CCOCCOCCOCCNc1nc(N2CCOCC2)nc(N2CCN(C(=O)CCCCCCCCCCNC(=O)Cn3cc(CCCCCN)nn3)CC2)n1	16
81	N#CCCN(C(=O)COC(=O)c1cc(=O)[nH]c2ccccc12)c1ccccc1	2
82	CSc1nsc(SCC(=O)Nc2ccccc2)n1	100
83	Cc1cc(NC(=O)C(C)C)ncc1NC(=O)c1ccco1	-6
84	COc1ccc(OC)c(NC(=O)COC(=O)CCC2CCCC2)c1	2
85	O=C(O)c1ccc(NC(=S)NC(=O)c2cncc(Br)c2)cc1	1
86	CCN(C[C@H]1N[C@@](Cc2ccccc2)(C(=O)OC)[C@H]2C(=O)N(Cc3ccccc3)C(=O)[C@@H]12)C(=O)c1ccc(C)cc1	-8
87	CC(C)(C)CC(C)(C)c1ccc(OCCOCC[N+](C)(C)Cc2ccccc2)cc1	94
88	COc1ccc(NC(=O)CN(C)C(=O)C(Sc2ccccc2)c2ccccc2)cc1 (stereo not drawn)	-7
89	COc1ccc(C(C(=O)NCC2CCCO2)N(C(=O)Cn2nnc3ccccc32)c2ccc(NC(C)=O)cc2)cc1OC (stereo not drawn)	-26
90	CCc1noc(C)c1C(=O)N(CC)CC(=O)NCc1ccc(Cl)cc1	8
91	CC(C)CC1NC(=O)N(CC(=O)Nc2cc(S(=O)(=O)N3CCOCC3)ccc2Cl)C1=O (stereo not drawn)	4
92	COc1ccc(-c2cc3cc(-c4cc(OC)c(OC)c(OC)c4)ccc3o2)cc1	8
93	CCCn1c(N)c(C(=O)CSc2nnc(Cc3cccs3)n2C2CC2)c(=O)n(C)c1=O	-5
94	COCCn1c(SCC(=O)NC(=O)NCc2ccccc2)nc2ccccc2c1=O	4
95	C=C[C@@H]1c2cccc(C)c2N(S(=O)(=O)c2ccc(C)cc2)[C@H](c2ccccc2)C1(C#N)S(=O)(=O)c1ccccc1 (stereo partly drawn)	-14
96	O=C(CSc1n[nH]c(-c2cccnc2)n1)Nc1ccccc1[N+](=O)[O-]	-1
97	Cc1csc(=O)n1CC(=O)Nc1nc2ccccc2s1	-3
98	C[C@H]1CN([C@@H](C)CO)C(=O)c2cc(NC(=O)c3ccncc3)ccc2O[C@H]1CN(C)Cc1ccc(C(=O)O)cc1	0
99	CCCNC(=O)C(Cc1ccccc1C)NC(=O)c1ccc(C(F)(F)F)cc1 (stereo not drawn)	7
100	COc1ccc(CCNC(=O)c2cccc(-n3cnnn3)c2)cc1	-6

Sorted by length of the SMILES (lowest first): 5 of the compounds above
#	compound	Mtb bLac sens
76	O=C(COC(=O)C1CC(=O)N(Cc2ccco2)C1)Nc1ccc(F)cc1F (stereo not drawn)	-1
88	COc1ccc(NC(=O)CN(C)C(=O)C(Sc2ccccc2)c2ccccc2)cc1 (stereo not drawn)	-7
96	O=C(CSc1n[nH]c(-c2cccnc2)n1)Nc1ccccc1[N+](=O)[O-]	-1
93	CCCn1c(N)c(C(=O)CSc2nnc(Cc3cccs3)n2C2CC2)c(=O)n(C)c1=O	-5
86	CCN(C[C@H]1N[C@@](Cc2ccccc2)(C(=O)OC)[C@H]2C(=O)N(Cc3ccccc3)C(=O)[C@@H]12)C(=O)c1ccc(C)cc1	-8

Next entries follow:
#	compound	Mtb bLac sens
101	Cc1cc(OCC(=O)OCC(=O)NC2CCCCC2C)ccc1Cl (stereo not drawn)	-1
102	COc1ccc(S(=O)(=O)N2CCC(C(=O)NCc3cccnc3)CC2)cc1OC	-2
103	COc1ccc(Cl)cc1NC(=O)CN(C)C(=O)c1ccc2c(c1)CC(c1ccccc1)OC2=O (stereo not drawn)	-3
104	CNC(C)C(=O)NC(C(=O)N1CCCC1C(=O)NNc1ccccc1)C(C)C (stereo not drawn)	?
105	O=C(COC(=O)c1cccnc1SC(F)F)NC1CC1	6
106	CC(=O)Nc1ccc(S(=O)(=O)N(C)CC(=O)NCCOc2ccccc2)cc1	-5
107	O=C(CSc1nc2c(cnn2-c2cccc(Cl)c2)c(=O)[nH]1)NCC1CCCO1 (stereo not drawn)	4
108	COc1ccc2ccc(=O)oc2c1CC(=O)C(C)C	-4
109	Cc1c(Cl)cccc1NC(=O)COC(=O)Cc1ccsc1	1
110	CCN(C(=O)COC(=O)CNC(=O)c1ccc(C)cc1)c1c(N)n(Cc2ccccc2)c(=O)[nH]c1=O	-1
111	O=C(CSc1nc2ccccc2c(=O)n1-c1ccc(F)cc1)NC1CC1	1

Compound activity as filed in PubChem BioAssay.
